Bioassay records: PubChem, Johns Hopkins Ion Channel Center
KCNQ2 pot – potentiators of rat KCNQ2 potassium channel. CHO-K1 KCNQ2, FluxOR thallium flux fluorescence; stronger effect = higher value. B-score at 10 µM. 310,000 compounds, 0.54% hits. AID 2239, 2010;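 active = fluorescence ratio B-score at least 3 SD of library B-scores, with initial fluorescence B-score within 3 SD, cut at about 5.3 in these data; same plate scores as AID 2156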;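 also: B-score of peak minus minimum over baseline fluorescence ratio after K+ and Tl+ stimulus; positive B-score means potentiation of KCNQ2 with more thallium influx and brighter signal; only the inactives scoring about 0 or higher are listed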
Target sequence (O88943 whole entry, looked up): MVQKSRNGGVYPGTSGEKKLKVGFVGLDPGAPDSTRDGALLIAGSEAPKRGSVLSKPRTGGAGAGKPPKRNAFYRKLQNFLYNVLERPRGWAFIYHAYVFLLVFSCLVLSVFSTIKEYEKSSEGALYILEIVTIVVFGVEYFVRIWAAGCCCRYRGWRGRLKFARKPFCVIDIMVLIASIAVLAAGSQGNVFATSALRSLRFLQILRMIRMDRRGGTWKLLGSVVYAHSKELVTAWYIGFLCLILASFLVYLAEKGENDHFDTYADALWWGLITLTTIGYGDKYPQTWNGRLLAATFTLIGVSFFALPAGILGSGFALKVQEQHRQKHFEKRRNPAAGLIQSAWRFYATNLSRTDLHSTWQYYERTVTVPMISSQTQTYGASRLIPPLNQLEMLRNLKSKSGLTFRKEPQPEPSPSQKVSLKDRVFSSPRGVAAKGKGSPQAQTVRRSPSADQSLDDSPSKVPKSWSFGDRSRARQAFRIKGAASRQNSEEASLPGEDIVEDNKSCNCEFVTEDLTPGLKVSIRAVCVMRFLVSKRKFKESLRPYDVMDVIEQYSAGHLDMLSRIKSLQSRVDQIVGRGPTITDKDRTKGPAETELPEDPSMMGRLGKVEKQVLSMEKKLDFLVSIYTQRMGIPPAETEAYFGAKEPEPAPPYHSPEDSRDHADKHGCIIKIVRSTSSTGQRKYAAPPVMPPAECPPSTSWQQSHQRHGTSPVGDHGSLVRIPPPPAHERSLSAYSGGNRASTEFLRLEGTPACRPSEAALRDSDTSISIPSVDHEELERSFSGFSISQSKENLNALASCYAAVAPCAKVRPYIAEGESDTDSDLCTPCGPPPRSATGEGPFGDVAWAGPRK
KCNQ2 pot baseline – second read-out of KCNQ2 pot, no call of its own (marks repeat the call); B-score; compound at 10 µM; measured here: initial fluorescence intensity artifact check;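 brightness before thallium and not channel activity; 0 = typical well and far values either way flag optical interference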
* hit, by the source's call.

SMILES	KCNQ2 pot	KCNQ2 pot baseline
Cc1[nH]c(=O)c(C#N)c(C)c1Cc1ccc(Cl)cc1Cl	0.18	-1.42
Cc1ccccc1C(=O)NCCNC(=O)c1cnccn1	1.04	0.53
Cc1ccnc(N(C(=O)c2cccs2)C(=O)c2cccs2)c1	1.89	-0.06
CCCCNC(=O)C1CC(c2ccc(C(F)(F)F)cc2)=NO1 (configuration not stated)	0.75	-1.11
CCOC(=O)c1ccc(N2C(=O)CC(C)(CC)CC2=O)cc1	0.29	1.14
O=C(c1ccc2c(=O)n3c(nc2c1)CCC3)N1CCCSC1=Nc1ccccc1	0.68	1.62
N#C/C(=C\c1cccc(Cl)c1)c1n[nH]c(Cn2cncn2)n1	0.15	0.29
Cc1ccc(N=Cc2c(C)[nH]n(-c3nc4ccccc4[nH]3)c2=O)cc1	0.34	0.01
CCOC(=O)C1CCCN(c2c(NCc3ccco3)c(=O)c2=O)C1 (configuration not stated)	1.3	-1.22
O=C(Nc1cnc2ccccn2c1=O)c1ccc(F)cc1	0.04	-0.95
CCN1CCN(C(=O)C2CCCN(S(=O)(=O)c3ccc(OC)c(OC)c3)C2)CC1 (configuration not stated)	0.71	0.21
CCC(=O)NCCc1nc2cc(NC(=O)c3ccc(OC)cc3)ccc2n1C	1.37	0.26
CC(C)c1cc(C(=O)NCc2ccco2)no1	0.9	-0.04
O=C(N1CCN(CCO)CC1)N1c2ccccc2CCc2ccccc21	0.67	0.28
Cn1cc(Br)c(C(=O)NN2C(=O)C3C(C2=O)C2C=CC3C23CC3)n1 (configuration not stated)	0.18	-0.05
COc1ccc(CCNC(=O)C2CCN(S(=O)(=O)c3ccc(F)cc3)CC2)cc1	0.71	1.27
CCOC(=O)Nc1ccccc1N1C(=O)c2ccccc2C1=O	0.09	0.32
Cc1ccc(S(=O)(=O)N(C)CC(=O)NCCc2c[nH]c3ccccc23)cc1	0.88	0.89
Cc1cc(C(=O)NCC(=O)Nc2c(C)cccc2C)c(C)o1	1.8	2.38
CCOC(=O)c1sc(N)nc1C(C)C	1.69	-0.08

Ordered by count of non-hydrogen atoms (lowest first): some entries from above
SMILES	KCNQ2 pot	KCNQ2 pot baseline
Cc1cc(C(=O)NCC(=O)Nc2c(C)cccc2C)c(C)o1	1.8	2.38
O=C(N1CCN(CCO)CC1)N1c2ccccc2CCc2ccccc21	0.67	0.28
Cc1ccc(S(=O)(=O)N(C)CC(=O)NCCc2c[nH]c3ccccc23)cc1	0.88	0.89

Further results follow:
SMILES	KCNQ2 pot	KCNQ2 pot baseline
OCCC1CN(Cc2cnc(-c3ccc(Cl)cc3)nc2)CCN1C1CCCCC1 (configuration not stated)	0.69	1.35
Cc1csc2c(=O)sc(NC(=O)c3cccs3)nc12	0.52	0.78
Cc1cccc(-c2cc3nc(-c4ccccc4)cc(=O)n3[nH]2)c1	1.33	0.03
O=C(NCCCN1CCOCC1)c1cnccn1	0.26	-1.06
CCOC(=O)NC1(C(F)(F)F)C(=O)N(Cc2ccccc2)C2=C1C(=O)CC(C)(C)C2 (configuration not stated)	2.02	0.43
Cc1cc(CNC(=O)c2cccc(OC3CCN(S(=O)(=O)N(C)C)CC3)c2)on1	0.01	3.1
CCc1ccc(Nc2n[n+](-c3ccccc3)c(-c3ccc(C(=O)O)cc3)s2)cc1	0.56	0.1
Nc1c(Cl)ncnc1N1CCN(c2ncnc(Cl)c2N)CC1	1.72	0
Cc1nc2ccc(N)cc2c(=O)n1Cc1ccc(Cl)cc1	0.08	-0.48
Cc1c(Br)c([N+](=O)[O-])nn1CC(=O)NCc1ccccn1	0.47	-0.14
CCCn1c(N)c(C(=O)COc2ccc(Br)cc2F)c(=O)n(C)c1=O	0.46	-0.81
COc1ccc(C(=O)NNC(=O)C2CC=CCC2)cc1 (configuration not stated)	0.63	1.69
CC1CCCCC1NC(=O)c1cccc(N2C(=O)C3C4C=CC(C4)C3C2=O)c1 (configuration not stated)	0.59	1.98
Cc1cc(=O)n2nc(N3CCC(C(=O)N4CCN(Cc5ccccc5)CC4)CC3)sc2n1	0.1	0.52
C=Cn1ccnc1CC(O)c1ccc(OC)cc1 (configuration not stated)	0.62	0.21
CCOC(=O)c1c(NC(=O)C2c3ccccc3Oc3ccccc32)sc(C(N)=O)c1C	1.54	0.17
Clc1ccc(C2=CSC3=NCCN23)c(Cl)c1	0.75	0.96
COc1cccc(/C=N/NC(=S)Nc2cccc(S(=O)(=O)N(C)C)c2)c1	1.77	1.54
CCn1cc(S(=O)(=O)Nc2ccc(Cl)cc2F)cn1	0.46	-0.03
Cn1c(SCC(=O)N2CCOCC2)nnc1-c1ccc(NC(=O)c2ccccc2F)cc1	2.68	-2.22
Cc1cc(S(=O)(=O)N(C)CCc2ccccc2)ccc1-n1cnnn1	1	0.45
Cc1cccc(N2CCN(C(=O)c3ccc4nc[nH]c4c3)CC2)c1C	1.02	1.83
CC(=O)NC(=S)Nc1ccc(N2CCOCC2)c(S(=O)(=O)Nc2cc(Cl)ccc2Cl)c1	0.18	-0.02
COC(C(=O)NCc1ccc(C)cc1)c1ccccc1 (configuration not stated)	0.58	-0.01
Cc1nc2sc3c(c2c(=O)n1NC(=O)CCl)CCCC3	1.36	-0.84
CC(O)(C#CCN1CCCCC1)c1ccccc1 (configuration not stated)	1.31	0.02
Cc1ccccc1N1CC(C(=O)N2CCCCCC2)CC1=O (configuration not stated)	0.27	-0.47
CCOc1ccc(CN2C(=O)c3ccccc3Sc3ccc(C(=O)NCCCN4CCOCC4)cc32)cc1	3.44	0.38
Nc1nc(-c2ccc(C(=O)O)cc2)cs1	0.08	0.81
O=S(=O)(/N=C(/Nc1cccc2ccccc12)c1ccccc1)c1ccccc1	0.03	-0.29

Individual results from the list:
Entry of CCOc1ccc(CN2C(=O)c3ccccc3Sc3ccc(C(=O)NCCCN4CCOCC4)cc32)cc1 under KCNQ2 pot: 3.44
Entry of Nc1nc(-c2ccc(C(=O)O)cc2)cs1 under KCNQ2 pot baseline: 0.81
Entry of COC(C(=O)NCc1ccc(C)cc1)c1ccccc1 (configuration not stated) under KCNQ2 pot baseline: -0.01

(more compounds)
SMILES	KCNQ2 pot	KCNQ2 pot baseline
O=C(CN1C(=O)c2cccc3cccc1c23)NCC1CCCO1 (configuration not stated)	0.2	-0.01
COC(=O)/C=C1\NC(=O)C(C)S1 (configuration not stated)	0.02	0.55
Cc1nc2oc3ccc(F)cc3c(=O)c2cc1C(=O)O	0.2	-0.49
COc1cccc(N2CC(C(=O)NCc3n[nH]c(=O)c4ccccc34)CC2=O)c1 (configuration not stated)	1.31	-0.31
O=C(N/N=C\c1ccc(CN(Cc2ccc(Cl)cc2)S(=O)(=O)c2ccccc2)o1)C(=O)Nc1ccc(F)cc1	0.67	1.08
Cc1cc2cc(C)c(NCCNC(=O)c3ccccc3)nc2cc1C	1.6	1.05
C=CCSc1nc(Cc2ccc(Cl)cc2)nc2ccccc12	1.67	0.02
Cc1cccc(CCNC(=O)C2CCC(=O)N(Cc3ccc(Cl)cc3)C2)n1 (configuration not stated)	0.46	0.02
CC1(C)CC(=O)N(CC(=O)NCc2ccccc2)c2ccccc2S1(=O)=O	0.24	-0.5
CCCCOc1ccc(Cc2c(O)nc(SC)[nH]c2=O)cc1	0.04	0.04
COC(=O)c1oc2ccc(Br)cc2c1NC(=O)CN1CCN(C)CC1	0.26	-0.08
CCN(CC)c1ccc(N=Nc2ncn[nH]2)cc1	0.96	-1.69
CC(NC(=O)/C(C#N)=C/c1ccc(N2CCOCC2)cc1)c1ccccc1 (configuration not stated)	0.4	0.51
Cc1nc2c(-c3ccccc3)c(C)nn2c(C)c1CC(=O)O	0.21	0.39
COc1ccc(S(=O)(=O)N2CCCCC2)cc1NC(=O)Cc1sc(C)nc1-c1ccc(F)cc1	0.88	-0.44
CC1CCN(C(=S)NC2CC3CCC2C3)CC1 (configuration not stated)	0.62	1.39
CC(=O)c1ccc(OCCCN2CCCCC2)cc1	1.6	-1.09
CCCOc1ccc(CNC(=O)C2CCN(c3nn4c(=O)cc(C)nc4s3)CC2)cc1	0.4	0.14
COc1ccc(C(=O)NCC(=O)N/N=C/c2c(C)[nH]c3ccccc23)cc1OC	0.87	0.73
Cc1ccc(CCS(=O)(=O)c2ccc(C(C)(C)C)cc2)cn1	0.18	0.37
O=C(COc1cc(=O)n2c(n1)SCCC2)c1ccccc1	0.01	-0.04
Cc1ccc(C)n1-c1ccc(C(=O)NC2CCN(Cc3ccccc3)CC2)cc1	1.63	-1.4
COc1cc2[nH]c(C(=O)Nc3ccc(F)cc3)cc2c(OC)c1OC	1.37	-1.56
CCn1c(CNC(=O)c2ccccc2)nnc1SCC(=O)N1CCN(c2ccccc2)CC1	0.79	-1
Cn1c(=O)c(C(=O)CN2CCCc3ccccc32)c(N)n(Cc2ccccc2)c1=O	0.01	-0.79
COc1ccc(C(=O)Nc2cccc(OC(=O)c3ccco3)c2)cc1	0.69	-0.27
Cc1ccc(CSCc2ccc(C(=O)O)o2)cc1	1.18	0.95
COc1ccc(C2OC(=O)CC2C(=O)NCc2ccccc2Cl)cc1OC (configuration not stated)	2.41	0.01
CC/C(=N\O)c1ccc(OC)c(OC)c1	1.7	-1.86
CSc1ccc2nnc(-c3cccc(F)c3)n2n1	0.43	-0.75

Sorted by value in KCNQ2 pot baseline (smallest number first): 7 of the compounds above.
SMILES	KCNQ2 pot	KCNQ2 pot baseline
Cc1nc2oc3ccc(F)cc3c(=O)c2cc1C(=O)O	0.2	-0.49
Cc1c(Br)c([N+](=O)[O-])nn1CC(=O)NCc1ccccn1	0.47	-0.14
Cc1ccnc(N(C(=O)c2cccs2)C(=O)c2cccs2)c1	1.89	-0.06
N#C/C(=C\c1cccc(Cl)c1)c1n[nH]c(Cn2cncn2)n1	0.15	0.29
CCOC(=O)NC1(C(F)(F)F)C(=O)N(Cc2ccccc2)C2=C1C(=O)CC(C)(C)C2 (configuration not stated)	2.02	0.43
Nc1nc(-c2ccc(C(=O)O)cc2)cs1	0.08	0.81
COc1cccc(/C=N/NC(=S)Nc2cccc(S(=O)(=O)N(C)C)c2)c1	1.77	1.54

Next part
SMILES	KCNQ2 pot	KCNQ2 pot baseline
CC1CCC(N2CCNCC2)CC1 (configuration not stated)	0.74	1.33
CC(=O)c1cc(CN2CCN(C(C)C)C(CCO)C2)cs1 (configuration not stated)	0.19	1.04
Clc1ccc(-c2ccnc(Oc3cc(Cl)ccc3Cl)n2)cc1	0.5	0.01
CCN(Cc1ccccc1)S(=O)(=O)c1c(C)[nH]c(C)c1C(=O)N1CCCCC1	0.51	1.24
CC(=O)c1cc2c(cc1NC(=O)Cn1nc(C)c(C)c(C#N)c1=O)OCO2	0.68	1.85
Cc1ccccc1Cn1cc(NC(=O)c2noc3c2CC(C(C)(C)C)CC3)cn1 (configuration not stated)	0.77	0.67
CCOC(=O)C1CCN(S(=O)(=O)c2ccc(C)c(C)c2)CC1	1.19	0.15
O=C(NCc1ccc(Cl)cc1)c1ccncc1	0.01	-0.58
CCOc1ccc(NC(=O)NC(=O)N(C(C)C)S(C)(=O)=O)cc1	0.51	0.75
COc1cc(OC)cc(C(=O)Nc2cccc(NC(=O)c3ccccc3)c2)c1	0.62	-0.05
Cc1cccc(C)c1NC(=O)CSc1nnc(Cc2ccccc2)o1	1.42	0.45
CCNC(=O)CC1SC(=Nc2cccc(Cl)c2C)N(C)C1=O (configuration not stated)	0.12	-0.13
O=c1[nH]c(COc2ccc(Cl)cc2Cl)nc2ccccc12	1.43	0.27
Cc1ccc(NC(=S)N(CCN2CCOCC2)Cc2cc3cc4c(cc3[nH]c2=O)OCCO4)cc1	0.18	0.39
CCOc1ccccc1C(=O)Nc1ccc(-n2nncc2C(C)(C)C)cc1	0.02	0.43
O=C1NN(c2ccc(Cl)c(Cl)c2)C(=O)/C1=C/c1cccc(OC(=O)c2cccs2)c1	0.1	0.18
Cc1cc(C(C)(C)C)cc(S(=O)(=O)Nc2ccc(C(=O)O)cc2)c1C	0.49	-0.99
CC(C)n1c(=O)c2c(O)cc(=O)oc2c2ccccc21	0.49	-0.78
Cc1ccc(NC(=O)CCCc2c[nH]c3ccccc23)nc1	0.15	0.08
CC(C)(CNS(=O)(=O)c1ccc(F)cc1)CNS(=O)(=O)c1ccc(F)cc1	1.79	-0.84
Cc1ccc(NC(=O)Nc2ccc(Cl)c(Cl)c2)nc1	0.72	-0.06
CCc1c(C)nc2cc(-c3ccc(Cl)cc3)[nH]n2c1=O	1.99	0.05
CCOC(=O)COc1ccc(S(=O)(=O)Nc2ccc3c(c2)OCCO3)cc1	0.04	0.49
Cc1c(NS(=O)(=O)c2ccc(C(=O)NCc3ccccc3)cc2)c(=O)n(-c2ccccc2)n1C	1.03	-0.39
COc1cccc(NC(=O)CSc2nc3ccccc3n2C)c1	0.24	-0.23
CC(C)[C@H](NC(=O)C1CC(=O)N(c2ccc3c(c2)OCO3)C1)C(=O)NC1CCCC1 (some centres not stated)	0.92	1.4
O=C(NCc1ccc(OC(F)(F)F)cc1)C1CC(c2ccc(C(F)(F)F)cc2)=NO1 (configuration not stated)	3.93	-1.34
O=S(=O)(Nc1ccc(-n2cccc2)cc1)c1ccc(F)cc1	0.79	-0.42
Cc1ccc(NC(=O)Cn2cccc2)cc1	0.26	0.42
NS(=O)(=O)c1ccc(NC(=O)c2ccccc2Cl)cc1	1.83	-0.99
COc1ccc(/C=N/NC(=O)C2(C)NC(C)(C)Cc3ccccc32)cc1 (configuration not stated)	0.84	-0.01
Cc1ccc2c(c1)N(CCC(=O)NC1CCCCC1C)C(=O)CO2 (configuration not stated)	1.47	0.06
COC(=O)c1c(NS(=O)(=O)c2ccc3ccccc3c2)sc2c1CCCC2	6.43*	0.66*
Cc1ccc(-c2csc(NC(=O)c3cccs3)n2)cc1	4.25	-0.77
CC1(C)C(=O)NCCN1C(=O)CCCC(=O)O	0.36	0.63
O=c1cc(CN2CCN(S(=O)(=O)c3ccccc3[N+](=O)[O-])CC2)nc2sccn12	1.27	1.1
CC(C)NC(=S)N1CCN(C/C=C/c2ccccc2)CC1	1.13	0.17
O=C(CN1C(=O)c2cccnc2Oc2ccc(Cl)cc21)NC1CCCC1	1.12	-1.37
O=C(NNc1ncnc2c1cnn2-c1ccc(F)cc1)c1ccco1	0.02	0.32

These rows are one share of the data. The share of hits here may be higher or lower than overall.
